High-throughput results deposited in PubChem BioAssay by National Center for Advancing Translational Sciences (NCATS).
Cruzain noTriton: blocks cruzain activity in detergent-free assay; purified cruzain, Z-FR-AMC fluorescence, no detergent; Potency, µM, for the others: max response, negative = inhibition, hits mostly inhibitors; 200,000 tested, 2.3% active; active means well fitted curve in the direction sought with a large enough effect; inconclusive means small, poorly fitted or top-dose-only effect, or another doubt; inactive means no such curve, though single readings can be large; an effect the other way counts as inactive or inconclusive;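 further: plate controls were enzyme without inhibitor for no effect and buffer without enzyme for full effect; nearly all actives have a fitted effect of over 40% in size; top concentration of the series not given in the record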
Target sequence (P25779 123-467 limits assumed): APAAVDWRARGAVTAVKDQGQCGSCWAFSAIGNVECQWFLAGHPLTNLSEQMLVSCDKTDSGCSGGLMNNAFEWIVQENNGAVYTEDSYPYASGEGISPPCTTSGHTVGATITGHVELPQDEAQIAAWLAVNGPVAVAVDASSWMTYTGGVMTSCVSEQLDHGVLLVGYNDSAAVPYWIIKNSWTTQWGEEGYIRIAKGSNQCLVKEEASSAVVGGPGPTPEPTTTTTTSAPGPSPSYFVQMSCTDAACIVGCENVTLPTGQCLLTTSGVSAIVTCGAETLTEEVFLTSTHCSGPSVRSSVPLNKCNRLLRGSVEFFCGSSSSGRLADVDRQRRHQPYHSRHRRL
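Purified cruzain at 1.5 nM, pre-incubated 15 min with compound at room temperature in 100 mM sodium acetate pH 5.5, 5 mM DTT, 0.00005% Triton X-100. Reaction started with 2 uM Z-FR-AMC; AMC fluorescence increase over 60 s gives rate.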
SARS PLP yeast: inhibitors of SARS-CoV papain-like protease in yeast; S. cerevisiae expressing SARS-CoV PLpro, growth rescue; control for the full effect not named in the record; Potency, µM (titrated, usually from 32.9 µM), for inactives: top-dose activity, positive = growth rescue; 330,000 tested, 0.19% active; further: 0% is about no effect; nearly all actives have a fitted effect of over 55% in size; growth read by luminescence after 48 h
LASV entry inh: inhibitors of Lassa virus binding or cell entry; Lassa virus pseudotype entry inhibition, cell reporter; control for the full effect not named in the record; Potency, µM (highest dose often 37.9 µM), for inactives: at the top dose activity change, negative = inhibition, hits mostly inhibitors; AID 540256; 300,000 tested, 1.2% active; active means well fitted inhibition curve with a large enough effect; inconclusive means small, poorly fitted or top-dose-only effect, or effect the other way; inactive means flat fitted curve, though single readings scatter; tested in HEK293 cells; further: on the % scale 0 is the no-effect control and ±100 the full control effect; nearly all actives have a fitted effect of over 50% in size; luciferase read-out
Cruzain Triton: inhibitors of Trypanosoma cruzi cruzain with detergent; P25779; purified cruzain, Z-FR-AMC fluorescence, 0.01% Triton; Potency, µM, for the others: max response, negative = inhibition, hits mostly inhibitors; 200,000 tested, 0.43% active; active means well fitted curve in the direction sought with a large enough effect; inconclusive means small, poorly fitted or top-dose-only effect, or another doubt; inactive means no such curve, though single readings can be large; an effect the other way counts as inactive or inconclusive;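 further: plate controls were neutral wells for no effect and buffer without enzyme for full effect; nearly all actives have a fitted effect of over 40% in size; top concentration of the series not given in the record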
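Cruzain (1.5 nM) preincubated 15 min at RT with compound in 100 mM sodium acetate pH 5.5, 5 mM DTT, 0.01% Triton X-100. Reaction started with 2 uM Z-FR-AMC; AMC fluorescence (ex 360/em 450 nm) change over 60 s gave rate.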
NS1 inh: inhibitors of influenza NS1 protein function | S. cerevisiae slowed by influenza A NS1, growth recovery by OD600 | Potency, µM (highest dose often 46.1 µM), for inactives: at the top dose activity, positive = more growth | 270,000 tested, 0.4% active | AID 2326; further: actives are rising curves; nearly all actives have a fitted effect of over 50% in size
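Compounds were scored for reversing the slow growth caused by influenza A NS1 in S. cerevisiae, measured by optical density at 600 nm. Assay medium contained 2% galactose at pH 6.0; NS1-free yeast of the same strain were the positive control.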
RE007 growth inh: less growth of the S. pombe RE007 Vpr strain. S. pombe RE007 Vpr strain, BacTiter-Glo ATP luminescence, 24 h; control for the full effect not named in the record. AID 651644. 360,000 tested, 0.21% active. Potency, µM (top dose mostly 92.2 µM), inactives show top-dose activity change, negative = less growth; active = well fitted falling curve with a large enough effect; inconclusive = small, poorly fitted or top-dose-only effect; inactive = no such curve, though single readings can be large or run the other way;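 further: on the % scale 0 is the no-effect control and ±100 the full control effect; nearly all actives have a fitted effect of over 50% in size; the assay follows cell death caused by Vpr and the record does not say whether a fall means rescue or toxicity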
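Fission yeast RE007 carrying one integrated HIV-1 vpr copy, seeded at OD 0.01 in PMG+AL medium with 23 nL pinned compound. Grown 24 h at 30 degrees; viability read by BacTiter-Glo luminescence after 5 min.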
Marburg entry inh: inhibitors of Marburg virus binding or cell entry; Marburg virus pseudotyped entry inhibition, cell reporter; control for the full effect not named in the record; about a third of the inactives were read at about 46 µM; Potency, µM (doses to about 37.8 µM), for inactives: at the highest dose activity change, negative = inhibition, hits mostly inhibitors; 300,000 tested, 1.8% active; active = well fitted inhibition curve with a large enough effect; inconclusive = small, poorly fitted or top-dose-only effect, or effect the other way; inactive = flat fitted curve, though single readings scatter; tested in HEK293 cells; about a fifth of its hits are not listed in these tables; further: on the % scale 0 is the no-effect control and ±100 the full control effect; luciferase read-out
StopGo reporter: lowers the luciferase signal of an FMDV 2A StopGo reporter. human cells with a luciferase reporter of 2A StopGo recoding; control for the full effect not named in the record. Potency, µM (titrated, usually from 57.9 µM), for the others: top-dose signal change, negative = less light. 410,000 tested, 1.2% active; active = well fitted falling curve with a large enough effect; inconclusive = small, poorly fitted or top-dose-only effect; inactive = no such curve, though single readings can be large or run the other way; tested in HEK293T cells; further: on the % scale 0 is the no-effect control and ±100 the full control effect; nearly all actives have a fitted effect of over 45% in size; luciferase light after 4 h
* marks the source's active call; other numbers are inactive results; ? = inconclusive; / = no result given; [ ] = another dose, or the depositor's remark. Unless noted, the call rests on the fitted dose curve; in most records, active means well fitted rising curve with a large enough effect; inconclusive means small, poorly fitted or top-dose-only effect; inactive means no such curve, though single readings can be large or run the other way. Potency means the concentration at half of the fitted maximal effect. An unsorted share of the library, and some 4.7% of all compounds hit somewhere here.

SMILES	Cruzain noTriton	SARS PLP yeast	LASV entry inh	Cruzain Triton	NS1 inh	RE007 growth inh	Marburg entry inh	StopGo reporter
COc1ccc(Nc2cc(Nc3ccccc3)ncn2)cc1	/	-3%	/	/	-2%	1%	-2%	53%[activator]
O=C(/C=C/c1ccccc1)NCCC1=CCCCC1	-8%	-35%	-2%	-10%	-23%	/	?	29%
COc1cc2c(cc1OC)-c1cc(NC3CCCCC3)nc(=O)n1CC2	-26%	3%	-11%	-20%	-16%	0%	27%	-24%
Cc1cc(NC(=O)CSc2nc(Cc3ccc(O)cc3)c(C)[nH]2)no1	/	5%	/	/	6%	23%	/	12%
O=C(NC1=NCCS1)c1cc(-c2ccc(F)cc2)nc2ccccc12	4%	-78%	-9%	-9.1%	-6%	-15%	?	14%
CS(=O)(=O)Nc1ccc(C(=O)Nc2ccc(S(=O)(=O)N3CCCCC3)cc2)cc1	/	-4%	-1%	/	4%	-1%	0%	0%
CC(=O)Nc1ccc(S(=O)(=O)NCC2CCC(C(=O)NCCc3ccc(C)cc3)CC2)cc1 (stereo unspecified)	-8%	/	7%[46.1 µM]	10%	/	/	/	-11%
COC(=O)CSc1nnc(COc2cccc3ccccc23)o1	/	-1%	12%[46.1 µM]	/	-13%	-6%	?	-4%
COc1ccc2c(=O)c3c(=O)n(-c4ccccc4)c(-c4ccco4)nc3oc2c1	3%	-6%	13%[46.1 µM]	-1.6%	-7%	43%	29%	-9%
COc1ccc(CN(C(=O)c2cc3ccccc3oc2=O)C2CCCC2)cc1	-18%	-20%	-3%	-4.6%	-10%	2%	4%[46.1 µM]	11%
CC1C(C)N1CC(O)Cn1ccnc1[N+](=O)[O-] (stereo unspecified)	/	0%	/	/	1%	-3%	/	-10%
O=C(Nc1ncc2c(n1)CC(c1ccco1)CC2=O)c1ccco1 (stereo unspecified)	/	0%	-1%[46.1 µM]	/	-1%	-22%	2%[46.1 µM]	8%
O=C(CSc1nnc(-c2cccnc2)n1Cc1ccco1)N1c2ccccc2Sc2ccccc21	?	1%	?	-4.2%	4%	-11%	?	?
COc1cccc(CNC(=O)CN(C)S(=O)(=O)c2cnc[nH]2)c1	-1%	8%	10%	4.6%	-4%	18%	10%	3%
CCc1ccnc(NS(=O)(=O)c2ccc3c(c2)CCO3)c1	/	0%	/	/	-1%	6%	/	72%[activator]
CCc1nc(SCC(=O)c2c[nH]c3ccccc23)n[nH]1	/	7%	17%	/	/	6%	1%[46.1 µM]	47%[activator]
COc1ccc(Nc2ccnc3ccccc23)cc1	-4%	2%	-4%	-5.0%	-6%	5%	?	-27%
Cc1cc(C)c2c(c1)CC(C)(C)CC2=O	/	/	?	/	/	33%	2%	-19%
O=C(O)c1cccc(Oc2ccccc2[N+](=O)[O-])c1	9%	0%	12%	0.1%	13%	4%	0%	-18%
COc1ccccc1OCc1cc(C(=O)N(C)CCC2CCCCO2)no1 (stereo unspecified)	/	1%	-5%	/	-3%	-5%	8%	45%[activator]
CCOC(=O)N1CCN(S(=O)(=O)c2ccc(C)c(C(=O)NC3CCCCC3)c2)CC1	/	1%	3%	/	2%	4%	11%	-24%
Cc1ccc2nsnc2c1NS(=O)(=O)c1c(C)ccc2nsnc12	13%	-10%	-17%	-0.3%	-4%	-12%	-18%	104%[activator]
CCOC(=O)c1cccc(NS(=O)(=O)c2cnc[nH]2)c1	-4%	5%	21%	1.8%	10%	-13%	0%[46.1 µM]	-12%
CCC1=NN=C(c2ccc(F)cc2)C(c2c[nH]c3ccccc23)N1O (stereo unspecified)	-3%	11%	16%	-5.3%	4%	-15%	?	2%
O=C1NCCc2cc3c(cc21)OCO3	-4%	-13%	5%	-0.9%	5%	2%	5%	7%
CC1=Nc2ccccc2N=C(NC(=O)CN2CCN(c3ccccc3)CC2)C1c1ccccc1 (stereo unspecified)	/	0%	-1%[46.1 µM]	/	-2%	-8%	?	-12%
COc1ccc(CCNC(=O)CCn2c(=O)c3ccccc3n(Cc3c(C)cc(C)cc3C)c2=O)cc1OC	-9%	/	-4%[46.1 µM]	-1.5%	/	/	1%[46.1 µM]	3%
Cc1ccc(NC(=O)CN2C(=O)c3ccccc3S2(=O)=O)cc1C	/	-3%	?	/	-3%	21%	?	35%[activator]
CC(C)c1ccc2[nH]c(O)c(N=NC(=S)NCCc3ccccc3)c2c1	?	?	/	-2.9%	13%	1%	3%	-15%
O=C(CCC(=O)Nc1ccc(Cl)cc1Cl)NNC(=O)Nc1ccccc1	/	-1%	8%	/	3%	14%	-12%[46.1 µM]	-16%
CC1CN=C(Nc2cccc(S(=O)(=O)N(C)C)c2)S1 (stereo unspecified)	/	-5%	2%[46.1 µM]	/	/	-13%	-1%[46.1 µM]	0%
Cc1ccc(-c2[nH]c3cc(C(=O)NCCCn4ccnc4)ccc3c(=O)c2O)cc1	/	?	/	/	-28%	-13%	/	10%
O=C(c1c[nH]c2ccc(S(=O)(=O)N3CCOCC3)cc2c1=O)N1CCC2(CC1)OCCO2	/	0%	1%[46.1 µM]	/	/	-10%	-4%[46.1 µM]	?
Cc1nc(C)c(CC(=O)N2CCc3c([nH]c4ccccc34)C2c2ccccn2)s1 (stereo unspecified)	/	2%	-2%	/	0%	-8%	?	-15%
CN(C(=O)COC(=O)C1c2ccccc2Oc2ccccc21)C1CCS(=O)(=O)C1 (stereo unspecified)	-2%	-1%	3%	2.6%	-8%	29%	?	-14%
Nc1nc(Cl)cc(NCCc2ccc(O)cc2)n1	/	3%	0%[46.1 µM]	/	/	-14%	-13%[46.1 µM]	-13%

Sorted by molar mass (ascending): 3 of the compounds above.
SMILES	Cruzain noTriton	SARS PLP yeast	LASV entry inh	Cruzain Triton	NS1 inh	RE007 growth inh	Marburg entry inh	StopGo reporter
Cc1ccc(NC(=O)CN2C(=O)c3ccccc3S2(=O)=O)cc1C	/	-3%	?	/	-3%	21%	?	35%[activator]
O=C(CCC(=O)Nc1ccc(Cl)cc1Cl)NNC(=O)Nc1ccccc1	/	-1%	8%	/	3%	14%	-12%[46.1 µM]	-16%
CN(C(=O)COC(=O)C1c2ccccc2Oc2ccccc21)C1CCS(=O)(=O)C1 (stereo unspecified)	-2%	-1%	3%	2.6%	-8%	29%	?	-14%

Continued.
SMILES	Cruzain noTriton	SARS PLP yeast	LASV entry inh	Cruzain Triton	NS1 inh	RE007 growth inh	Marburg entry inh	StopGo reporter
CC12CCC(C(=O)N(c3nccs3)C1=O)C2(C)C (stereo unspecified)	/	/	-1%[46.1 µM]	/	/	-2%	12%[46.1 µM]	-11%
O=C(NNC(=O)c1cccc2ccccc12)c1cccc(Cl)c1	/	/	?	/	/	-13%	-8%	13%
CCOC(=O)c1c(NC(=O)CSc2nnc(-c3c[nH]c4ccccc34)n2CCOC)sc2c1CCCC2	-16%	0%	?	-2.1%	?	5%	-25%	-15%
CCOC(=O)NC(=O)CSc1nnc(SCCC(=O)O)s1	13%	0%	4%	3.5%	2%	0%	?	-6%
CCOc1ccc(-c2cc(N)n(S(=O)(=O)c3cccc4nsnc34)n2)cc1	/	-1%	/	/	12%	-9%	/	4%
Cc1cc(C)c(S(=O)(=O)N2CCN(C(=O)CN3C(=O)NC4(CCCC4)C3=O)CC2)c(C)c1	/	-8%	-3%	/	-8%	-3%	23%	-24%
Cc1ccc(NC(=O)COC(=O)Cn2cnc3c2c(=O)n(C)c(=O)n3C)c(Cl)c1	/	0%	19%	/	/	-8%	?	-6%
O=S(=O)(c1ccccc1)c1nc(-c2ccco2)oc1N1CCCCCC1	1%	-21%	-11%	-9.1%	-93%	?	?	-4%
CN1CCc2c(sc(NC(=O)C3CCCN3S(=O)(=O)c3ccc(Cl)s3)c2C(N)=O)C1 (stereo unspecified)	/	5%	-10%	/	/	3%	?	-13%
COc1ccc(NC(=O)C2CCCN(c3nn4c(=O)cc(C)nc4s3)C2)cc1 (stereo unspecified)	/	0%	/	/	3%	-8%	/	-19%
CCn1c(=O)c2sccc2n2c(CCCC(=O)Nc3ccc(OC)c(OC)c3)nnc12	4%	/	5%[46.1 µM]	-1.8%	/	/	/	-14%
CCn1c(=O)c(=O)[nH]c2cc(C(=O)NCc3ccc(F)cc3)ccc21	/	8%	?	/	6%	4%	-3%[46.1 µM]	-10%
CC1CCCCC1NC(=O)CCn1c(=O)oc2ccccc21 (stereo unspecified)	18%	-1%	1%	1.7%	1%	-11%	14%	/
Cc1cccc(OCC(=O)Nc2ccccc2N2CCCCC2)c1C	/	0%	-27%	/	/	-2%	?	-24%
CC(Sc1ccc2c(c1)OCCO2)C(=O)Nc1ccc2c(c1)OCO2 (stereo unspecified)	-3%	-11%	4%	-5.1%	-9%	-29%	-9%	4%
COc1cc(C(=S)N2CCOCC2)cc(OC)c1O	/	2%	4%	/	6%	-1%	16%[46.1 µM]	4%
CC1=C(c2ccc(C)c(C)c2)S(=O)(=O)N=C1N1CCC(C(=O)NCc2ccc(C)o2)CC1	-13%	/	19%[46.1 µM]	-0.6%	/	/	/	-5%

Structural class: those above with a Cl atom (five)
SMILES	Cruzain noTriton	SARS PLP yeast	LASV entry inh	Cruzain Triton	NS1 inh	RE007 growth inh	Marburg entry inh	StopGo reporter
O=C(CCC(=O)Nc1ccc(Cl)cc1Cl)NNC(=O)Nc1ccccc1	/	-1%	8%	/	3%	14%	-12%[46.1 µM]	-16%
Nc1nc(Cl)cc(NCCc2ccc(O)cc2)n1	/	3%	0%[46.1 µM]	/	/	-14%	-13%[46.1 µM]	-13%
O=C(NNC(=O)c1cccc2ccccc12)c1cccc(Cl)c1	/	/	?	/	/	-13%	-8%	13%
Cc1ccc(NC(=O)COC(=O)Cn2cnc3c2c(=O)n(C)c(=O)n3C)c(Cl)c1	/	0%	19%	/	/	-8%	?	-6%
CN1CCc2c(sc(NC(=O)C3CCCN3S(=O)(=O)c3ccc(Cl)s3)c2C(N)=O)C1 (stereo unspecified)	/	5%	-10%	/	/	3%	?	-13%
